High-throughput results from PubChem BioAssay.
Rango complex inh = prevents formation of the Rango-importin beta complex; Q14974; actives 0.031% (n = 340,000); Potency, µM (series often up to 92.2 µM), inactives show at the top dose inhibition of complex formation; Rango CFP/YFP FRET sensor + importin beta, 45 min; active = rising FRET ratio curve, often small or poorly fitted; inconclusive = mostly compound fluorescence or quenching in the first reads; inactive = flat curves in all reads;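 note: potency is the fitted concentration of half-maximal effect; 0% = DMSO wells and 100% = buffer wells lacking importin beta; nearly all actives have a fitted effect of over 15% in size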
Target sequence (Q14974 whole entry, looked up): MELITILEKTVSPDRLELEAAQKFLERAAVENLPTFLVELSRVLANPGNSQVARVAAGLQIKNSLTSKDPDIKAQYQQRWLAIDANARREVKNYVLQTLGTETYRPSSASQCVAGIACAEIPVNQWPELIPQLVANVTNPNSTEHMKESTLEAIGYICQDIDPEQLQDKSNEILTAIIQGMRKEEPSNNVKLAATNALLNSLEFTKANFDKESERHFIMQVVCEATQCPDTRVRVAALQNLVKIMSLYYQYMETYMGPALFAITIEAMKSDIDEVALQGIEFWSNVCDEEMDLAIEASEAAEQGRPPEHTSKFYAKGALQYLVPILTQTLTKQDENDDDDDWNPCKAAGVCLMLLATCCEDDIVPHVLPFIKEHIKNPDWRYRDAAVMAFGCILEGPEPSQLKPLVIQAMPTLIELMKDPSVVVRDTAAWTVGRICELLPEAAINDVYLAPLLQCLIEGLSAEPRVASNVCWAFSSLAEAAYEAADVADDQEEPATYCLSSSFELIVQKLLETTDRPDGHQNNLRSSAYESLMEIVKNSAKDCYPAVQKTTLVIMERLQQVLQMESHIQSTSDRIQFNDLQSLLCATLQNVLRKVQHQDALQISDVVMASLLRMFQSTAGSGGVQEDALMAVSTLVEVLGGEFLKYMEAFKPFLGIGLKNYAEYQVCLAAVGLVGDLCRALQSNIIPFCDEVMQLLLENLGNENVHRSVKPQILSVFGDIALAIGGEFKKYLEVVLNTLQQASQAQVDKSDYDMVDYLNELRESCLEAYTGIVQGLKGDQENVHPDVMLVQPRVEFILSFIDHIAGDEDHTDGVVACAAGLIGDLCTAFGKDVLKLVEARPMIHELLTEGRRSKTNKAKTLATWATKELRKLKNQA
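FRET biosensor (snurportin 1 IBB flanked by EYFP and cerulean), 50 nM, with compound 5 min, then 0.125 microM importin beta in PBS, 1 mM DTT, 0.02% Tween-20, 0.1% BSA. CFP/YFP ratio read after 45 min at room temperature; pre-read flags interference.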
GLA inh pH 4.5 = blocks human alpha-galactosidase A at pH 4.5. P06280. purified enzyme, 4-MU-alpha-Gal fluorescence, pH 4.5. activity change, negative = inhibition, % at 105 µM. 230,000 tested, under 10 active. AID 1467; inconclusive = small, poorly fitted or top-dose-only inhibition, or a rising curve; inactive = flat fitted curve, though single readings scatter; no compound was filed as active;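 note: 0% = full activity with enzyme and -100% = basal without enzyme; dose as in the result columns while the protocol names 77 µM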
miR-21 reporter = miR-21 reporter, rising signal; HeLa miR-21 FLuc reporter, luciferase, 48 h; Potency, µM (series often up to 38.3 µM), without a hit: at the top dose reporter change, positive = more light; 340,000 tested, under 10 active; AID 2288; active = well fitted rising curve with a large enough effect; inconclusive = small, poorly fitted or top-dose-only effect; inactive = no such curve, though single readings can be large or run the other way;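 note: % of control where 0% means no effect; miR-21 action dims this reporter so a rising signal means less miR-21 action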
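Compounds were titrated across several concentrations (up to approximately 40 uM) and incubated 48 hours with HeLa miR-21-FLuc reporter cells (miR-21 target sequence downstream of FLuc, endogenous miR-21). Readout was firefly luciferase luminescence after lytic detection reagent.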
Rango release inh = inhibition of RanGTP-driven Rango-importin beta dissociation; O95149+P62826; actives 0.071% (n = 340,000); Biochemical FRET Rango-importin beta, RanGTP-induced dissociation; Potency, µM (highest dose often 46.1 µM), without a hit: top-dose activity change, negative = inhibition; active means falling FRET ratio curve, often poorly fitted, with flat reads before Ran was added; inconclusive means other falling curves, or compound fluorescence or quenching; inactive means flat or rising ratio curve;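 note: potency is the fitted concentration of half-maximal effect; % of control where 0% means no effect; nearly all actives have a fitted effect of over 45% in size; -100% = wells without RanGTP and RCC1; the record marks most hits as doubtful in a second field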
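Compounds preincubate 5 min with complex of recombinant Rango and importin beta in PBS with 1 mM DTT. Ran (0.6 uM) loaded with 2 mM GTP plus 0.2 uM RCC1 starts dissociation; FRET is recorded 45 min later.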
* marks the source's active call; other numbers are inactive results; ? = inconclusive; . = not tested or not shown; & = joins results of further samples.

SMILES | Rango complex inh | GLA inh pH 4.5 | miR-21 reporter | Rango release inh
O=C(NNC(=S)Nc1ccccc1)c1cccs1 | -4.8% | -6 | -76% | 1%
CCSc1nc2ccccc2n1CC(=O)N1CCCCC1 | 1.5% | -24 | -9% | 2%
COc1cc(-c2nc3ccccn3c2/N=C/c2ccccc2)ccc1O | ? | 3 | -15% | ?
CN(Cc1ccccc1)C(=O)COc1cccnc1[N+](=O)[O-] | -0.4% | . | -1% | -11%
CCc1ccc(C2CC(c3ccccc3C)n3nc(N)nc3N2)cc1 (stereo unspecified) | -0.5% | 1 | -7% | 17%
CCOc1cccc(C2C(C(=O)c3ccc(C)o3)=C(O)C(=O)N2c2nnc(C)s2)c1 (stereo unspecified) | 1.0% | . | . | -9%
Cc1cccc(NS(=O)(=O)c2cccc(C(=O)NCCCN3CCOCC3)c2)c1 | 3.7% | . | . | 7%
CCN(CC)S(=O)(=O)c1cc(C(=O)OCC(=O)Nc2cccc(S(=O)(=O)N(C)C)c2)ccc1F | 0.6% | -11 | 1% | 9%
CCCCNC(=O)OC1CCS(=O)(=O)C1 (stereo unspecified) | 1.0% | -1 | 0% | -5%
N#CC[n+]1cc(-c2ccc(Cl)cc2)n2c1CCC2 | -0.1% | 0 | 1% | 13%
O=C(Nc1ccc(Cl)cc1)c1ccc(CN2CCc3ccccc3C2)cc1 | -4.8% | . | -10% | 5%
O=C1NC(c2cccc3ccccc23)Nc2ccc(Cl)cc21 (stereo unspecified) | -1.7% | . | . | -8%
Cn1cc(SCC(=O)N2CCN(c3ccccc3)CC2)c2ccccc21 | 3.9% | -4 | -8% | 0%
COc1ccc(-n2nc([N+](=O)[O-])c(=NCCc3ccc(C)cc3)n2O)cc1 | -5.5% | -8 | -5% | 29%
O=C(/C=C\c1cn(-c2ccccc2)nc1-c1cccs1)N1CCOCC1 | 6.9% | 3 | 0% | 7%
Cn1c(=O)c2cc(S(=O)(=O)NC(C(=O)N3CCCCCC3)c3ccccc3)ccc2n(C)c1=O (stereo unspecified) | -3.7% | -1 | -1% | 16%
COc1ccc2c(c1)nc(NCCO)n2C | 4.0% | 4 | -14% | 12%
CNC(=O)[C@@]1(Cc2ccccc2)C=C[C@@H](C)N1C(=O)OC | -3.1% | 3 | . | -7%
COCCn1c(SCC(=O)N2CCCC2=O)nc2sc(C)c(C)c2c1=O | -1.1% | . | . | 8%
Cc1ccc(N(C(=O)c2nsc(Cl)c2Cl)C(C(=O)NC2CCCC2)c2ccc(O)cc2)cc1C (stereo unspecified) | 0.8% | -7 | -9% | 5%
CCn1c(SCCOc2ccc(OC)cc2)nnc1C(CO)NC(=O)c1ccc(OC)cc1 (stereo unspecified) | ? | 4 | -5% | 2%
O=c1ccc2c(-c3ccccc3)c3ccc(O)cc3oc-2c1 | ? | . | 1% | ?
O=S(=O)(c1ccc(Cl)cc1)N1CCC(N2CCOCC2)CC1 | -0.1% | -2 | -2% | -9%
Cc1nc2ccccc2n2c(O)c(CC(=O)O)cc12 | ? | -9 | -2% | ?
CC(NC(=O)c1ccc(NC(=O)CC2SC(N3CCCC3)=NC2=O)cc1)c1ccc(S(N)(=O)=O)cc1 (stereo unspecified) | 1.5% | . | . | 19%
COc1ccc2c(c1)/C(=C/c1cc(OC)c(OC)c(OC)c1)C(=O)N2 | -1.1% | . | . | 33%
Cc1noc(C)c1NC(=O)N1CCN(Cc2ccccc2)CC1 | 6.9% | -1 | 3% | -2%
COc1cccc(CC(C(=O)Nc2cc(C)ccc2C)c2nn[nH]n2)c1OC (stereo unspecified) | ? | -4 | 0% | -8%
COC(=O)CCN(C1CCCCC1)S(=O)(=O)c1ccc(S(=O)(=O)N2CCCCC2)cc1 | 0.3% | 10 | -3% | -10%
O=C1c2ccccc2C(=O)N1CCCCn1c(=O)oc2ccccc21 | 3.0% | 5 | -11% | 9%

Brought forward from above: 3 compounds; new compounds follow.
SMILES | Rango complex inh | GLA inh pH 4.5 | miR-21 reporter | Rango release inh
COc1cccc(CC(C(=O)Nc2cc(C)ccc2C)c2nn[nH]n2)c1OC (stereo unspecified) | ? | -4 | 0% | -8%
COC(=O)CCN(C1CCCCC1)S(=O)(=O)c1ccc(S(=O)(=O)N2CCCCC2)cc1 | 0.3% | 10 | -3% | -10%
O=C1c2ccccc2C(=O)N1CCCCn1c(=O)oc2ccccc21 | 3.0% | 5 | -11% | 9%
CN(Cc1nc(-c2cccs2)no1)CC(O)c1ccccc1 (stereo unspecified) | -0.5% | -2 | -40% | 1%
O=c1[nH]c2cc(Cl)ccc2c(O)c1-c1cccc(Oc2ccccc2)c1 | -0.5% | 1 | . | -3%
CCN(CC)S(=O)(=O)c1ccc(C)c(NC(=O)/C=C/c2cccs2)c1 | 4.4% | -5 | 12% | -11%
Cc1ccc(C)c(N(CC(=O)NCCc2ccccc2)C(=O)CCC(=O)Nc2ccccn2)c1 | -0.4% | . | 0% | -5%
O=S(=O)(c1ccccc1)N(CC1CO1)c1cccc2ccccc12 (stereo unspecified) | -1.7% | 0 | -1% | -1%
O=C(O)CCNC(=O)/C(=C/c1ccco1)NC(=O)c1ccco1 | 1.1% | . | 3% | -12%
Cc1ccc(OCC(=O)Nc2nnc(S(=O)(=O)N3CCCCCC3)s2)cc1 | 1.8% | . | -2%&-36% | 0%
CN(C)C(=O)CSc1nc(-c2ccccc2)c(-c2ccccc2)o1 | -0.3% | 5 | -6% | -10%
O=C(NCCCN1CCc2ccccc2C1)C1CCN(c2nnc(-n3cccc3)s2)CC1 | -0.7% | 1 | -14% | -3%
COc1ccc(CCNS(=O)(=O)c2ccc(Cl)s2)cc1OC | 5.6% | 3 | -6% | 14%
O=C1c2ccccc2S(=O)(=O)N1CC(O)COc1ccc(Cl)cc1 (stereo unspecified) | -0.3% | 5 | -8% | -10%
CCc1nn(C(C)C(=O)Nc2cccc(C)c2C)c(=O)c2cc3occc3n12 (stereo unspecified) | 4.0% | 4 | -1% | 4%
COc1ccc(CCNC(=O)c2nnc(Cc3ccc(Cl)cc3)o2)cc1OC | 0.7% | 6 | 11%&4% | 7%
CC(Sc1ccc2c(c1)OCCO2)C(=O)Nc1ncc(Cl)cc1Cl (stereo unspecified) | -2.6% | 11 | 6% | -4%
c1ccc(C2CC3CC(c4ccccc4)N2O3)cc1 (stereo unspecified) | 2.4% | . | . | -22%
Cc1cc(NC(=O)C(C)SCC(=O)N(C)Cc2ccccc2F)no1 (stereo unspecified) | 3.5% | . | . | -6%
CC(C)(C)c1ccc(OCCCC(=O)NC2=NCCS2)cc1 | -5.8% | -6 | -18% | 15%
COc1cccc(N(CC(=O)Nc2cccc(N(C)S(C)(=O)=O)c2)S(C)(=O)=O)c1 | -3.0% | -13 | 2% | 0%
O=C(CN1CCN(CCN2C(=O)c3cccc4cccc(c34)C2=O)CC1)c1ccc(F)cc1 | 2.6% | -7 | 18% | 2%
CN(Cc1ccn[nH]1)C(=O)C1CCC(=O)N(Cc2cccc(C(F)(F)F)c2)C1 (stereo unspecified) | -2.8% | . | -3% | 33%
COc1ccc(-c2nnc(SCC(=O)c3ccc(O)cc3O)o2)cc1 | -0.1% | . | -39% | -5%
Cc1nn(C(C)C(=O)NCc2ccco2)c(C)c1[N+](=O)[O-] (stereo unspecified) | 0.2% | 13 | 4% | -16%
CO/N=C/c1cccn1-c1nccc(N(C)C)c1C#N | 0.1% | 10 | -5% | 0%
O=S(=O)(c1cccc(F)c1)N1CCN(Cc2cc3c(cc2Br)OCCO3)CC1 | 3.7% | . | . | -12%
COc1cccc(NC(=O)COC(=O)c2ccc(S(=O)(=O)NCc3ccco3)cc2)c1 | -0.5% | 1 | -3% | -2%
COc1ccc(OC)c(NC(=O)CCN2CCCCC2)c1 | 2.4% | -6 | -6% | 1%
CC1CCCC(C)N1/N=C/c1ccccc1C(=O)O (stereo unspecified) | -0.2% | 8 | -4% | 15%
COc1ccc(NC(=O)CN(C)C(=O)c2ccc(C)c(S(=O)(=O)N3CCCCC3)c2)cc1 | -0.5% | . | . | -3%
CSc1ccc(CN(C)CC(=O)Nc2cccc(Br)c2)cc1 | -2.2% | 0 | 12% | 1%
CN1CCN(c2ccc(CNS(=O)(=O)c3ccsc3)cc2)CC1 | -0.8% | -2 | -5% | 2%
Cc1c(N(CC(=O)O)S(=O)(=O)c2ccccc2)c(=O)n(-c2ccccc2)n1C | -0.9% | 5 | 0% | 13%
CCn1cc(C(=O)OCC(=O)N2C(C)CCCC2C)c(=O)c2ccc(C)nc21 (stereo unspecified) | -2.5% | 2 | -1% | -1%
O=C(Cc1ccc(NC(=O)C2CCCN(C(=O)C3CC3)C2)cc1)Nc1ccc(C(=O)N2CCOCC2)cc1 (stereo unspecified) | -0.5% | . | . | 12%
COc1cccc(NC(=O)CN(C)C(=O)c2ccc(NS(=O)(=O)c3ccc(F)cc3)cc2)c1 | -2.3% | . | . | 52%
O=C(Nn1c(C2CCCCC2)nc2ccccc2c1=O)c1ccc([N+](=O)[O-])cc1 | -1.7% | 1 | 6% | -10%
CC1CCN(CCC(=O)N/N=C/c2ccc([N+](=O)[O-])cc2)CC1 | 1.5% | -8 | 1% | 0%
Cc1ccccc1C(=O)Nc1c(C(=O)N2CCN(C)CC2)cnn1-c1ccccc1 | 1.3% | . | . | -4%
O=C(CSc1nnc(-c2ccccc2)n1Cc1ccccc1)N1CCCC1 | 1.6% | 1 | 0% | -9%
O=C1c2cc(S(=O)(=O)NCCO)ccc2-c2ccc(S(=O)(=O)NCCO)cc21 | 1.3% | 0 | -5% | -7%
COc1ccc(CSc2nnc(C)s2)cc1F | -2.8% | -3 | -57% | 18%
CCC(=O)Nc1cccc(NC(=O)c2ccc(C)cc2Cl)c1 | 0.0% | 6 | -17% | 15%
CC(C)Cc1nnc(NC(=O)CCC(=O)N2CCN(c3ccccn3)CC2)s1 | -1.3% | -1 | -1% | 14%
Cc1ccc(S(=O)(=O)Cn2nnnc2C(C(C)C)N2CCN(Cc3ccco3)CC2)cc1 (stereo unspecified) | -1.4% | -1 | 0% | 2%
COC(=O)COc1ccc(S(=O)(=O)Nc2ccc(C(N)=O)cc2)cc1 | 6.0% | 5 | -4% | -19%
Cc1csc(NC(=O)CSc2nnc(-c3ccncc3)n2C)n1 | 4.7% | 5 | 0% | 12%
O=C(c1cc(-c2ccncc2)nc2ccc(Br)cc12)N1CCN(c2ccccn2)CC1 | -0.4% | 6 | 5% | 0%
COc1ccccc1N1CCN(C(=O)c2ccc(S(=O)(=O)N3CCCCCC3)cc2)CC1 | -4.2% | -18 | 23% | -17%
Cc1ccccc1NC(=O)c1cccc(N2C(=O)C3C4CCC(C4)C3C2=O)c1 (stereo unspecified) | -5.4% | 4 | -14% | 20%
O=C1COc2ccc(S(=O)(=O)NCc3ccc(Cl)cc3)cc2N1 | -1.8% | . | -1% | 16%
Cc1ccc(OCCNC(=O)C2CCCCC2)cc1 | -0.1% | 0 | -22% | 1%
COc1ccc(S(=O)(=O)N2CCC(C(=O)NCCC(=O)Nc3cccc(OC)c3)CC2)cc1 | 0.9% | . | 5% | -6%
CCOc1ccccc1C1C(C#N)=C(N)Nc2onc(-c3ccccc3)c21 (stereo unspecified) | 1.3% | 0 | -4% | 10%
CCN1C[C@@H]2[C@@H]3C(=O)N(Cc4ccccc4)C(=O)[C@@H]3[C@](CC)(C1=O)N2C(=O)c1ccc(Cl)c(Cl)c1 | -0.9% | . | . | -1%
O=C(Nc1cccc(-c2ccc3nncn3n2)c1)c1ccco1 | -1.1% | -1 | 2% | 0%

An excerpt from above in order of the Rango complex inh value, falling.
mol,Rango complex inh,GLA inh pH 4.5,miR-21 reporter,Rango release inh
COc1ccc(S(=O)(=O)N2CCC(C(=O)NCCC(=O)Nc3cccc(OC)c3)CC2)cc1,0.9%,.,5%,-6%
CCN1C[C@@H]2[C@@H]3C(=O)N(Cc4ccccc4)C(=O)[C@@H]3[C@](CC)(C1=O)N2C(=O)c1ccc(Cl)c(Cl)c1,-0.9%,.,.,-1%
O=C1COc2ccc(S(=O)(=O)NCc3ccc(Cl)cc3)cc2N1,-1.8%,.,-1%,16%

Not all compounds are listed; the hit share may differ from the screen's.
